Assay outcomes: PubChem BioAssay, ICCB-Longwood Screening Facility, Harvard Medical School
AID504770: growth inhibitors of E. coli YBA685 in a screen for V. cholerae RctB (chromosome II replication) inhibitors; E. coli YBA685 rctB-dependent plasmid, OD600 growth, 3 h; hits give low values; z-score (test concentration not listed); 0.27% of 130,000 active;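 active = z-score under -2 on both plates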;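 note: wells of about 30 µL received 100 nL stock; score is relative to mean and SD of the test wells; the first replicate is given; strong numbers were not always called active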
Ba CapD inh: blocks the Bacillus anthracis CapD enzyme | purified CapD enzyme, fluorescence intensity read-out; hits give low values; some hits fall short of the stated cut | z-score (concentration not given with the values) | 0.23% of 140,000 active;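 active = z-score under -4 in either of two replicates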;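 note: stock transfer was 100 nL into about 40 µL; score is relative to mean and spread of the plate; one replicate is shown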
Starred values were filed as active, the others as inactive; . = not tested or not shown; & = joins results of further samples.

Start of the listing, in advance, 18 compounds:
SMILES | AID504770 | Ba CapD inh
CC1=C(C(=O)OC(C)C)C2(O)C(=O)c3ccccc3C2(O)N1 (centres undefined) | 1.65 | .
O=C(O)CC(C1CCCCC1)n1cccc1 (centres undefined) | 0.05 | -0.2
O=C(C/C=N\OCc1c(Cl)cccc1Cl)Nc1ccc(F)cc1F | . | -0.075
Cc1c(C(=O)Nc2ccc(F)cc2)cnn1-c1ccc(F)cc1 | -0.5 | 0.18
CCc1cc2c(cc1-c1csc(CC#N)n1)C(C)(C)CCC2(C)C | . | -0.53
O=C(CC(c1ccccc1)C1CCCCC1=O)c1ccco1 (centres undefined) | 0.45 | .
CC(C)NC(=O)CSc1nnc2sc3ccccc3n12 | -0.7 | .
COc1ccc2c(c1)[C@]13CCCC[C@H]1[C@H](C2)N(C)CC3 | 0.25 | .
CCCCNC(=O)C1(O)c2ccccc2NC(=O)N1c1ccccc1 (centres undefined) | 1.2 | -0.17
CCOC(=O)CNc1c(-c2ccc(OC)cc2)nc2ccc(Cl)cn12 | -0.65 | .
CCc1ccc2[nH]cc(S(=O)(=O)c3ccccc3)c(=O)c2c1 | 0.6 | 0.285
COC(=O)c1sc(SC)c(S(=O)(=O)c2ccc(Cl)cc2)c1C | . | 0.215
CCc1nnc2sc(-c3ccccc3N)nn12 | 0.65 | .
CC1(C)CN(c2ccc(N3CC(C)(C)C3=O)cc2)C1=O | 0.4 | -0.335
CCOC(=O)C1=C(C)NC2=C(C(=O)C(C(=O)OCC)C(c3ccc(OC)cc3)C2)C1c1cccc(OC)c1OC (centres undefined) | . | 12.1
O=C(c1ccc(NS(=O)(=O)c2ccccc2)cc1)N1CCCC1 | 0.2 | -0.1
COc1ccc2nc(NC(=O)NC34CC5CC(C3)CC(c3ccc(C)cc3)(C5)C4)sc2c1 | . | 0.145
Clc1cccc(C=NN2CCN(Cc3ccccc3)CC2)c1Cl | 2.1 | -0.34

The listing, previewed entries included:
SMILES | AID504770 | Ba CapD inh
CC1=C(C(=O)OC(C)C)C2(O)C(=O)c3ccccc3C2(O)N1 (centres undefined) | 1.65 | .
O=C(O)CC(C1CCCCC1)n1cccc1 (centres undefined) | 0.05 | -0.2
O=C(C/C=N\OCc1c(Cl)cccc1Cl)Nc1ccc(F)cc1F | . | -0.075
Cc1c(C(=O)Nc2ccc(F)cc2)cnn1-c1ccc(F)cc1 | -0.5 | 0.18
CCc1cc2c(cc1-c1csc(CC#N)n1)C(C)(C)CCC2(C)C | . | -0.53
O=C(CC(c1ccccc1)C1CCCCC1=O)c1ccco1 (centres undefined) | 0.45 | .
CC(C)NC(=O)CSc1nnc2sc3ccccc3n12 | -0.7 | .
COc1ccc2c(c1)[C@]13CCCC[C@H]1[C@H](C2)N(C)CC3 | 0.25 | .
CCCCNC(=O)C1(O)c2ccccc2NC(=O)N1c1ccccc1 (centres undefined) | 1.2 | -0.17
CCOC(=O)CNc1c(-c2ccc(OC)cc2)nc2ccc(Cl)cn12 | -0.65 | .
CCc1ccc2[nH]cc(S(=O)(=O)c3ccccc3)c(=O)c2c1 | 0.6 | 0.285
COC(=O)c1sc(SC)c(S(=O)(=O)c2ccc(Cl)cc2)c1C | . | 0.215
CCc1nnc2sc(-c3ccccc3N)nn12 | 0.65 | .
CC1(C)CN(c2ccc(N3CC(C)(C)C3=O)cc2)C1=O | 0.4 | -0.335
CCOC(=O)C1=C(C)NC2=C(C(=O)C(C(=O)OCC)C(c3ccc(OC)cc3)C2)C1c1cccc(OC)c1OC (centres undefined) | . | 12.1
O=C(c1ccc(NS(=O)(=O)c2ccccc2)cc1)N1CCCC1 | 0.2 | -0.1
COc1ccc2nc(NC(=O)NC34CC5CC(C3)CC(c3ccc(C)cc3)(C5)C4)sc2c1 | . | 0.145
Clc1cccc(C=NN2CCN(Cc3ccccc3)CC2)c1Cl | 2.1 | -0.34
CC(C)CCNc1cc(=O)n(C)c(=O)n1C | 1.35 | -0.03
N#Cc1c(-c2cccnc2)c2c([nH]c1=O)-c1ccccc1CC2 | -1 | 80.9
COc1cc(C2C(C(=O)N3CCOCC3)=C(C)NC3=C2C(=O)CC(C)(C)C3)cc([N+](=O)[O-])c1O (centres undefined) | . | -0.97
COc1ccc(C(=O)OCc2cc(C)on2)cc1Br | -2.5 | .
COC(=O)C1CSCN1C(=O)Nc1ccccc1 (centres undefined) | 0.55 | .
CCOC(=O)C1CC1c1ccccc1 (centres undefined) | -0.3 | .
Cc1cc(=O)oc2c3c(ccc12)O/C(=C\c1cc(Br)ccc1O)C3=O | . | -0.285
CC(C)(C)n1nnnc1C(c1ccc2ncccc2c1)N1CCOCC1 (centres undefined) | -0.75 | .
CCOC(=O)c1cnc(Nc2nc3ccccc3o2)nc1CSc1ncccn1 | -0.75 | 0.16
CC(C)(C)OC(=O)N/N=C\c1cccs1 | -0.9 | -0.51
COc1cc(C(=O)OCC(=O)c2cc(C)n(C3CC3)c2C)cc2c1OCCO2 | 0.25 | .
CC(C)(C)OC(=O)C1CCCN1C(=O)CCOC(Cc1cnccn1)c1ccc(C(F)(F)F)cc1 (centres undefined) | . | -0.54
Cc1ccc(-c2nc3c(cnn3-c3ccccc3)c(=O)n2-c2cccc(C)c2)cc1 | -0.6 | -0.055
CC1=C(C(=O)c2ccccc2)C(c2ccc(F)cc2)NC(=O)N1 (centres undefined) | -1 | .
COc1ccc2nc(NC(=O)CNC(=O)Cn3cnc4sc5c(c4c3=O)CCCC5)sc2c1 | . | 0.835
Cc1cccc(Cl)c1NC(=S)NC(Cc1ccccc1)c1ccccc1 (centres undefined) | -0.75 | 0.19
CS(=O)(=O)c1ccccc1-c1nc(-c2cccc(C(F)(F)F)c2)no1 | . | -0.05
c1ccc(-c2nnn(-c3cnc4ccccc4c3)n2)cc1 | 0.2 | -0.35
CCOC(=O)c1c(N2C(=O)CCC2=O)sc2c1CCC(C)C2 (centres undefined) | 0.95 | .
CCNc1cc(Cl)nc(SC)n1 | 0.65 | -0.48
Cc1ccc(CN(C(=O)c2ccccc2)C2CCS(=O)(=O)C2)cc1 (centres undefined) | -0.45 | -0.465
Cn1cnnc1SCC(=O)NCc1cccc(C(F)(F)F)c1 | 0.3 | -0.16
CCCSc1nnc2c(n1)OC(c1cc3c(cc1[N+](=O)[O-])OCO3)Nc1ccccc1-2 (centres undefined) | . | -0.38
CCN(CC(=O)NCc1ccc(F)cc1)C(=O)c1cccnc1SC | -0.55 | .
O=C1CCN(S(=O)(=O)c2ccc(Cl)cc2)CCN1 | -0.4 | 0.51
CCN(CC)Cc1c(C(=O)N/N=C/C2CC=CCC2)nnn1-c1nonc1N (centres undefined) | . | 6.34
COc1ccc(OC)c(C2C3=C(CCCC3=O)N(c3ccc([N+](=O)[O-])cc3)C(=N)/C2=C(/O)c2ccc(C)cc2)c1 (centres undefined) | . | 0.395
COc1ccc(S(=O)(=O)N(C)C2CCN(Cc3ccc(C(F)(F)F)cc3)C2)cc1 (centres undefined) | . | -0.105
CCc1ccc(NC(=O)c2nn(-c3ccc(C)cc3)c(=O)c3c2c2ccccc2n3C)cc1 | 0 | 0.65
O=C(NCCCO)c1cc2sc3ccccc3c2s1 | -0.05 | .
CN1CCN(c2ccccc2NS(=O)(=O)c2ccc3c(c2)SCC(=O)N3)CC1 | -0.3 | -1.13
C=CCNC(=O)c1cnc(-c2ccccc2)nc1Sc1ccc(Cl)cc1 | . | -0.03
Fc1cccc(-c2cc3nc4c(c(NCCCN5CCOCC5)n3n2)CCCC4)c1 | -1 | .
CC(NC(=O)c1ccc(F)cc1)C(c1cccs1)N1CCN(C)CC1 (centres undefined) | -0.4 | 1.62
O=C(Nc1ncn[nH]1)c1cccc(Br)c1 | -0.3 | 0.36
Cc1nc2cc(C(=O)NCCN3CCOCC3)ccc2n1-c1ccc(Br)cc1 | . | -0.885
CCOc1ccc(NC(=O)c2ccc3c(c2)S(=O)(=O)N=C2CCCCCN23)cc1 | 1 | .
CCN(CC)CCC(=O)N1c2ccccc2Sc2ccc(C(F)(F)F)cc21 | . | -0.135
CCC1Sc2cc(S(=O)(=O)CCC(=O)N3CCCCC3)ccc2NC1=O (centres undefined) | -0.1 | -1.58
CCCCc1c(O)nc(SCC(=O)N2CCCCC2)[nH]c1=O | -0.1 | 4.42
CC1=C(C(=O)OC2CCCCC2)C(c2ccc(OCc3ccccc3)cc2)NC(=O)N1 (centres undefined) | . | -0.115
COc1ccccc1NC(=O)CSc1nc2ccccc2n1S(=O)(=O)c1ccc(Br)cc1 | . | -0.055
Continued.
SMILES | AID504770 | Ba CapD inh
O=S1(=O)N=CNc2ccc(S(=O)(=O)Nc3ccccc3)cc21 | -0.45 | 0.065
CCOC(=O)CCn1cc(/C=C(\C#N)C(N)=S)c(-c2ccccc2)n1 | 0.95 | .
O=C(Nc1ccc(Cl)cc1)C1CCCCC1 | 1.75 | -0.01
COC(=O)C1=C(C)NC2=C(C(=O)CC(C)(C)C2)C1c1sccc1C (centres undefined) | -0.2 | 3.64
Cc1c(OCc2c(F)cccc2Cl)c(=O)ccn1Cc1ccc(Cl)cc1 | . | -0.205
COC(=O)C1=C(C)NC2=C(C(=O)CC(c3ccc(Cl)cc3)C2)C1c1ccccc1 (centres undefined) | 1.2 | 0.08
CCc1ccc(NC(=O)CSC)cc1 | -0.5 | 0.51
CCn1c(SCC(=O)N2CCC(C)CC2)nnc1-c1c[nH]c2ccccc12 | 0.1 | -0.6
COc1ccccc1C(=O)Nc1ccccc1-c1nnn(CC(=O)N2CCN(c3ccc(F)cc3)CC2)n1 | -0.15 | .
CCCN(CCC)C(=O)c1cnn(-c2ccccc2)c1NC(=O)c1ccccc1 | 2.7 | -0.46
C/C(c1cccs1)=[N+](/[O-])C(C)/C(=N/O)c1ccco1 (centres undefined) | 0.4 | .
O=C(Nc1ccc(Br)cc1C(F)(F)F)C(F)(F)F | -0.1 | 0.37
Cc1cccc(N2CCN(C(=O)Cc3ccc(-n4c(=O)[nH]c5ccsc5c4=O)cc3)CC2)c1C | -1.3 | -1.15
CC1(C)Oc2ccc(C(=O)N/N=C/c3cccs3)cc2NC1=O | -0.4 | .
CCCc1cc2c(=O)c(-c3ccccn3)coc2cc1OC | 0.3&0.05 | 0.665&-0.695
Nc1c(NCC(c2ccco2)N2CCCCC2)c(=O)[nH]c(=O)n1Cc1ccccc1 (centres undefined) | -2.95 | .
CCCCn1c(-c2cccc(Br)c2)nc2ccccc21 | -0.5 | 0.52
Cc1ccc(NC(=O)CCn2c(=O)c3cccn3c3ccccc32)cc1 | -0.85 | -0.565
O=C(O)c1ccccc1C(F)(F)F | -0.75 | 1.1
Cc1noc(C)c1COc1cc2ccccc2cc1C(=O)O | 1.9 | .
O=C(O/N=C1\CCCCC1c1ccc([N+](=O)[O-])cc1[N+](=O)[O-])c1ccco1 (centres undefined) | . | 0.095
Cc1cc(C)c2c(=O)[nH]c(SCC(=O)Nc3ccccc3)nc2n1 | 0.1 | 0.3
CCOC(=O)NC(=O)c1cn(OCc2ccc(Cl)cc2)c(=O)[nH]c1=O | . | 0.04
CC(OC(=O)Cn1cnc2ccccc2c1=O)C(=O)NCc1ccccc1 (centres undefined) | -0.95 | .
O=C(c1ccncc1)N1N=C(c2ccc(Cl)cc2)CC1(O)C(F)(F)F (centres undefined) | . | -0.375
CCOC(=O)c1csc(-c2cccc(C(F)(F)F)c2)n1 | 1.45 | -0.55
O=C(CCCn1c(=O)[nH]c2cc(Cl)ccc2c1=O)NCC1CCCO1 (centres undefined) | -0.75 | 0.985
COc1ccc(OCC(=O)N/N=c2\oc3c(OC)cccc3cc2C(N)=O)cc1 | 0.8 | 0.185
CCOC(=O)c1[nH]c(=O)c2ccccc2c1O | 1.2 | 9.66
O=C(Cc1cc(=O)[nH]c(=O)[nH]1)N1CCCCC1 | -0.65 | .
Cc1ccc(NC2=C(CC(=O)O)C(c3ccc(Br)cc3)N(c3ccc(C)cc3)C2=O)cc1 (centres undefined) | . | -0.335
Cc1cc(-c2onc(C)c2COC(=O)NNC(=O)c2ccc(C)s2)no1 | . | -0.89
Cc1ccc(NS(=O)(=O)c2cc(S(=O)(=O)Nc3ccc(C)cc3)c3cccc4c3c2NC4=O)cc1 | . | -0.185
O=C(NCCN1CCOCC1)c1ccc(NC(=O)C2COc3ccccc3O2)cc1 (centres undefined) | -1.3 | .
NNC(=O)c1csc(-c2cccs2)n1 | -0.4 | 9.74
Cc1ccc2oc(=O)c3cnn(CC(=O)Nc4cc(-c5cccc(Cl)c5)no4)c3c2c1 | -0.35 | -0.385
Cc1nc(N2CCN(Cc3ccccc3)CC2)c2c3c(sc2n1)CCCC3 | . | -0.555
CC(=O)N1CC=C2C(C#N)=C(N)C(C#N)(C#N)C(Cc3ccccc3)C2C1 (centres undefined) | 0 | .
COc1ccc(C2C(=O)N(C3CCCCC3)CC(=O)N2Cc2ccccc2)cc1 (centres undefined) | -0.7 | -0.59
CC(C)(C)C(=O)[C@H]1[C@H](c2ccc([N+](=O)[O-])cc2)C(C#N)(C#N)[C@@H]2c3ccccc3C=CN21 | . | 8.57
CCOC(=O)c1oc2ccccc2c1COC(=O)c1ccc(S(C)(=O)=O)cc1 | -0.6 | .
Cc1ncc([N+](=O)[O-])n1CCNC(=O)OCc1ccccc1Cc1ccccc1 | . | -1.1
CCc1nc(NCCN(CC)CC)c(C#N)c2c1COC(C)(C)C2 | 0.45 | 30.5
CN(C)CCN1C(=O)C(=O)/C(=C(/O)c2ccc(F)cc2)C1c1ccccn1 (centres undefined) | -0.95 | -1.8
Cc1cc2c(cc1C)C(c1ccncc1)CC(=O)N2 (centres undefined) | 0.9 | 0
Brc1ccc(-n2cccc2)nc1 | -0.7 | -0.37
Cc1c(NC(=O)CSc2nc3ccccc3[nH]2)c(=O)n(-c2ccccc2)n1C | . | 0.045
O=C(NC12CCC(O)C(SC1)C2=O)c1ccccc1 (centres undefined) | . | -0.4
